gsp agonist: activates gsp, the McCune-Albright syndrome mutation; Potency, µM (doses to about 76.9 µM), for the others: top-dose activation (cAMP increase), hits mostly activators; gsp mutant cells, cAMP HTRF, 30 min; control for the full effect not named in the record; 340,000 tested, 0.13% active; AID 624287; active = well fitted activation curve with a large enough effect; inconclusive = small, poorly fitted or top-dose-only effect, or another doubt; inactive = no such curve, though single readings can be large or run the other way; cell line not stated here;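 further: phosphodiesterase inhibitor Ro 20-1724 added with compounds to block cAMP breakdown; potency means the concentration at half of the fitted maximal effect; nearly all actives have a fitted effect of over 60% in size; about a fifth of the inactives were tested at one dose only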
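Cells in DMEM/10% FBS with G418 were pretreated with compounds in DMSO plus […] (300 uM stock) for 30 min at 37C. cAMP was measured by HTRF (cAMP-d2 plus anti-cAMP antibody-K) after 30 min at room temperature.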
ClpP mod: qHTS Assay for Activators of ClpP; ATP-dependent Clp protease proteolytic subunit (Bacillus subtilis (strain 168)), P80244; Potency, µM (titrated, usually from 57.5 µM), inactives show top-dose activity change, negative = active; 340,000 tested, 1.9% active; purified B. subtilis ClpP, FRET peptide cleavage, 20 min; active = well fitted falling curve with a large enough effect; inconclusive = small, poorly fitted or top-dose-only effect; inactive = no such curve, though single readings can be large or run the other way; further: potency means the concentration at half of the fitted maximal effect; the source files actives as falling curves though it sought activators and does not explain the sign; nearly all actives have a fitted effect of over 65% in size; many hits overshoot -100%
Target sequence (P80244 whole entry, looked up): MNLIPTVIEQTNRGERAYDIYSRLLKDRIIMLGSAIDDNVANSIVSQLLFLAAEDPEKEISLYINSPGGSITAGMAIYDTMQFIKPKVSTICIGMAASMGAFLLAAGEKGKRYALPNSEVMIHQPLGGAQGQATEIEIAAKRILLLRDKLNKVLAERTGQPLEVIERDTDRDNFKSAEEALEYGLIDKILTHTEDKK
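Purified B. subtilis ClpP, 10 microg/mL final in Tris/HCl pH8 with KCl, BSA, glycerol and Tween-20, cleaved an Abz/nitrotyrosine-quenched decapeptide. Fluorescence (ex 320, em 430) was read at 0 and 20 min at room temperature. Delta was normalized to 5.8 microM ADEP and DMSO/no-enzyme controls.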
TRPML1 agonist: activates the human TRPML1 channel; Q9GZU1; TRPML1-expressing cells, Ca2+ dye fluorescence, FDSS; host cell line not named in the record; reference of the full effect not given here; activation, % (concentration not given with the values); 410,000 tested, 0.12% active; AID 624414; in the data active = activation above about 50%; inconclusive = about 30% to 50%; inactive = below about 30%; further: 0% is about no effect; the text of the record puts the active cut at 80%
Target sequence (Q9GZU1 whole entry, looked up): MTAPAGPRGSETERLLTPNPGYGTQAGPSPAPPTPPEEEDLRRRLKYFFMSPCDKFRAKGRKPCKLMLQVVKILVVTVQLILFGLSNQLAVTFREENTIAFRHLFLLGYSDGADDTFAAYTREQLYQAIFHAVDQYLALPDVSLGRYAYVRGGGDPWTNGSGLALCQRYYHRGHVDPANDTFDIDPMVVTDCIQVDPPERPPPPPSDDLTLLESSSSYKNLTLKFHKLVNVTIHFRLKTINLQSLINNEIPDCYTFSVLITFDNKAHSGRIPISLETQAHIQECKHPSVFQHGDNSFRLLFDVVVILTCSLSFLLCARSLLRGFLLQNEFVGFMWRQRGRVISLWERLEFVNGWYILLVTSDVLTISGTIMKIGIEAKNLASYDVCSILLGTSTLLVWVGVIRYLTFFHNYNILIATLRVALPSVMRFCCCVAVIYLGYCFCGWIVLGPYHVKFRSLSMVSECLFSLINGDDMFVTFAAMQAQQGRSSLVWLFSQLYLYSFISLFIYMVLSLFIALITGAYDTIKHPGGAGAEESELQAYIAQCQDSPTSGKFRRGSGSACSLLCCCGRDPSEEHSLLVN
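TRPML1-DL cells, Tet-induced overnight (~16 h, 37 degrees C), loaded 45-90 min at room temperature with Ca8 no-wash calcium dye plus quencher. FDSS fluorescence: 10 s baseline, compound pin-transfer, 110 s agonist read, then EC80 54-4 (4uM final) and 110 s antagonist read.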
gsp antag: antagonizes gsp, the McCune-Albright syndrome mutation. gsp-mutant cells, cAMP HTRF, 30 min; control for the full effect not named in the record. 340,000 tested, 0.4% active. AID 624288. Potency, µM (titrated, usually from 76.9 µM), without a hit: top-dose activity change, negative = inhibition, actives largely listed as inhibitors; active = falling curve of any shape with a large fitted effect; inconclusive = falling curve, mostly with a smaller effect; inactive = flat or rising curve; cell line not stated here;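 further: intracellular cAMP measured with PDE inhibitor Ro 20-1724 present during compound exposure; potency means the concentration at half of the fitted maximal effect; on the % scale 0 is the no-effect control and ±100 the full control effect; nearly all actives have a fitted effect of over 65% in size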
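Measurement of cellular cAMP by homogeneous time-resolved fluorescence following a 30 min compound exposure at 37C. The PDE inhibitor […] was present throughout; the assay buffer was DPBS with 0.05% BSA and 0.005% Tween 20.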
TRPML1 blocker: blocks the human TRPML1 channel; activity change, negative = inhibition, % (no concentration beside the values); TRPML1-inducible cells, Ca2+ dye fluorescence, FDSS; stronger effect = lower value; inhibition of EC80 agonist-evoked calcium signal; Q9GZU1; 390,000 tested, 0.02% active; in the data active means activity change below about -50%; inconclusive means about -30% to -50%; inactive means above about -30%;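 further: stimulus is agonist 54-4 at its EC80 concentration; on the % scale 0 is the no-effect control and ±100 the full control effect; compound concentration not given in the record; the text of the record puts the active cut at -80%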
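Calcium fluorescence in TRPML1-DL cells induced overnight with Tet: a 110 s read after compound pin addition, then a 110 s antagonist read after challenge with 54-4 at 4 uM final (EC80).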
Menin MLL FP FL: menin-MLL binding inhibition, fluorescein peptide; Fluorescence polarization, fluorescein-MLL peptide displacement from menin; FP activity change, % at 61.4 µM; 290,000 tested, under 10 active; AID 1766; inconclusive = falling polarisation curve, or a change in total fluorescence; inactive = total fluorescence flat and polarisation flat or rising; no compound was filed as active; the % refers to the polarisation; negative = inhibition;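 further: % of control where 0% means no effect; inhibitors lower the polarisation; unlabelled MLL peptide was the positive control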
* marks the source's active call; other numbers are inactive results; ? = inconclusive; . = no result given; & = joins results of further samples; [ ] = dose if it differs, or a comment. Outcome played no part in choosing rows, and some 2.1% of all compounds hit somewhere here.

SMILES | gsp agonist | ClpP mod | TRPML1 agonist | gsp antag | TRPML1 blocker | Menin MLL FP FL
CC(C)(C)NC(=O)c1cnn2c1NC(c1ccc(F)cc1)CC2C(F)(F)F (configuration not stated) | -1% | -0.6% | 0.7 | 12% | -3 | 3.7
CCOc1ccc(NS(=O)(=O)c2ccc(C(=O)N(C)CCc3ccc(OC)c(OC)c3)cc2)cc1 | 22% | -0.5% | 0.7 | 2% | -3 | 2.3
COc1ccc(N(CC(=O)Nc2cc(C(=O)O)ccc2C)S(=O)(=O)c2c(C)noc2C)cc1 | 20% | -3.6% | -0.3 | 2% | 12 | 43[activator]
COc1ccccc1C(=O)NC(CCSC)C(=O)NNC(=O)c1ccc(F)cc1 (configuration not stated) | -54%[inhibitor] | 28µM* | 0.4 | -5% | -1 | .
O=C(NCCCc1ccccc1)c1ccccc1 | -18% | -5.8% | -0.4 | 0% | -7 | 4.7
CCn1c(O)c(C=NCc2ccccc2)sc1=S | -8% | 1.2% | 3.0 | 1% | -4 | 6.2
O=S(=O)(c1ccc(F)cc1)N1CCC(Oc2ccc(-n3cnnn3)cc2)CC1 | . | -1.2% | 2.5 | . | -5 | .
COc1ccc(CCC(=O)N(c2nnc(-c3cccnc3)s2)C(C)C)cc1 | -17%[15.4 µM] | . | -0.3 | -9% | -11 | -4.5
CCOc1ccc(NC(=O)CCC(=O)NNC(=O)NC2CCCCC2)cc1 | 19% | -0.8% | 0.1 | -7% | -7 | .
CC(C)CN(C(=O)COC(=O)CSc1ccccc1)c1c(N)n(Cc2ccccc2)c(=O)[nH]c1=O | -65%[inhibitor] | 0.7% | 0.0 | 12% | 0 | .
COc1cccc(NC(=O)CN(C)C(=O)CSc2nc3ccccc3s2)c1 | -36%[inhibitor] | 2.3% | -0.7 | -28% | -7 | .
C[C@H](CO)N1C[C@H](C)[C@@H](CN(C)Cc2ccccn2)Oc2ncc(Br)cc2C1=O | 4% | -1.1% | -0.3 | . | -14 | .
O=Cc1cn(CCC(=O)O)nc1-c1cc2ccccc2o1 | 27%[15.4 µM] | -0.6% | -0.4 | 5% | 23 | -3.7
COc1ccc(-c2csc(NC(=O)c3ccc(C(C)(C)C)cc3)c2C(=O)O)cc1 | -1%[15.4 µM] | . | 1.8 | 32µM* | 14 | .
COc1ccc(NS(=O)(=O)c2cccc(NC(=O)NCCCl)c2)cc1 | -4%[15.4 µM] | . | -0.7 | 0% | 0 | -1.6
O=C(Cn1nnc(-c2ccncc2)n1)N(C1CCCCC1)C1CCCCC1 | -5% | 0.8% | -0.4 | -10% | 5 | 3.7
CCCN1CCN(CCCNC(=O)Cn2c(-c3cccs3)cc3cc(Cl)ccc32)CC1 | . | 32µM* | -0.1 | . | 3 | .
CCCCCCCOC(=O)c1ccc(OC(=O)c2cccnc2)cc1 | ? | 0.4% | 0.9 | 9% | -6 | 0.4
CC(C)c1ccc2c(c1)C1Cc3ccccc3C1N2 (configuration not stated) | -14% | ? | 0.8 | 9% | 29 | 4.1
C=CCC1S/C(=N/N=C/c2cccs2)NC1=O (configuration not stated) | -15% | 1.2% | 2.8 | -4% | 21 | 3.4
COc1ccc2c(c1)OC[C@H]1[C@H]2N2C(=O)[C@H](C)NC(=O)[C@@]2(C)[C@H]1c1ccccc1 | -14% | -0.8% | -0.5 | 4% | 1 | .
COc1ccc(-c2csc(N3CCC(c4ccccc4)CC3)n2)cc1 | -8% | . | -0.4 | -5% | 26 | -1.3
CSc1nc(O)c(/C=C2\C=Nc3ccccc32)[nH]1 | 15% | 1.8% | -0.7 | -11% | 2 | 23
COC(=O)c1ccccc1NC(=O)C1CCCN(S(=O)(=O)c2ccc(F)cc2)C1 (configuration not stated) | -4% | -12% | 2.1 | -11% | 1 | 4.1
CCCCOC(=O)CN1C(=O)c2ccc(C(=O)OCCCC)cc2C1=O | -13% | 0.9% | 0.1 | -15% | -29 | -0.5
O=c1[nH]c2cc3c(cc2cc1CN(CC1CCCO1)S(=O)(=O)c1ccc(Cl)cc1)OCCO3 (configuration not stated) | 1% | ? | 0.4 | 2% | 1 | 3.7
COc1ccc(NC(=O)C2C3CCC4C(CCC32)C4(Cl)Cl)cc1 (configuration not stated) | -6% | -1.8% | 0.0 | -1% | -16 | 8.6
C=CCn1c(C)cc(C(=O)CSc2nnc3n(CCC)c(=O)c4ccccc4n23)c1C | 6%[15.4 µM] | . | 0.9 | -5% | 0 | .
COc1cccc(C(=O)/C=C/Nc2ccc(S(=O)(=O)Nc3ncccn3)cc2)c1 | 5% | -1.7% | 0.9 | -18% | 1 | .
Cc1ccc(O)c(CCc2ccccc2)n1 | -6%[15.4 µM] | 28µM* | -0.5 | 14% | 4 | -22
Cc1c(C(=O)C(=O)NCCC2=CCCCC2)c2ccccc2n1C | -55%[inhibitor] | -2.3% | 1.6 | -3% | -13 | 7.0
OCCN1CCN(c2ncnc3c2ncn3[C@H]2CN(Cc3ccco3)C[C@@H](CO)O2)CC1 | . | -3.4% | 0.1 | . | 4 | .
CCSc1nc(C)nc2c1oc1ccccc12 | 0% | 0.5% | -1.5 | -2% | -9 | 2.9
O=S(=O)(NCc1ccccc1)c1cccs1 | 9% | 14µM* | -1.8 | 6% | -13 | 2.2
COC(=O)[C@@]1(Cc2ccc(OC)cc2)[C@H]2c3cc(C(=O)N(C)C)[nH]c3C[C@H]2CN1C(=O)c1ccccc1 | . | 1.6% | 0.9 | -7% | 8 | 0.2&-0.2
CN1CCN(c2ccc(-c3ccnn3C(=O)Nc3cccc(C(F)(F)F)c3)cc2)CC1 | -60%[inhibitor] | -26% | 0.2 | 10% | 5 | 4.5
CCOc1cc(CNc2cccc3[nH]c(C)nc23)ccc1OC | ? | . | 0.4 | 6% | 19 | 1.8
COc1cc(C=NNC(=O)c2cccnc2)ccc1OC(=O)c1ccccc1F | 23% | 4.7% | 0.8 | -8% | -5 | .
COCCCNC(=O)c1ccc(Cn2c(=O)c3ccccc3n(Cc3ccc(Cl)cc3)c2=O)cc1 | . | -2.8% | 0.7 | . | -2 | .
O=C(Nc1ccncc1)Nc1ccc(F)c(Cl)c1 | -45%[inhibitor] | -2.6% | 0.6 | 1% | 11 | 5.8
COc1ccc(/C=N/N(Cc2ccccc2)c2ccccc2)cc1O | 10%[15.4 µM] | -0.2% | 0.6 | 0% | 0 | 0.7
COc1ccccc1/C=C/C=N/NC(=O)CN1CCN(Cc2ccccc2)CC1 | -2%[15.4 µM] | -0.1% | -0.5 | -3% | 2 | 6.9
O=C(OCC(=O)N1CCCC1=O)c1nc(Cl)c(Cl)c(Cl)c1Cl | -9% | 0.0% | 0.2 | ? | -1 | 0.0
O=C(/C=C/c1ccccc1Cl)N(Cc1ccccc1)C1CCS(=O)(=O)C1 (configuration not stated) | ? | 3.7% | 2.1 | ? | 37 | 0.0
C/C(=N\NC(=O)CSc1ncccn1)c1ccc2c(c1)OCCO2 | -2%[15.4 µM] | . | -0.7 | 2% | -15 | 1.9
COc1ccc2[nH]c(C)c(C(=O)CN3CCN(C(=O)c4ccco4)CC3)c2c1 | 29% | 0.8% | -0.4 | 12% | 12 | -2.1
CC(=O)Nc1ccc(NC(=O)c2ccccc2N(C)S(=O)(=O)c2ccc(C)cc2)cc1 | 17% | -2.8% | 0.6 | 2% | 11 | -0.1
O=C(N/N=C/c1ccc(-n2ccnc2)cc1)c1cccs1 | 11% | -5.6% | 1.2 | -17% | 28 | 2.6
CCOC(=O)c1c(C)[nH]c(C)c1S(=O)(=O)N1CCC(C(=O)N2CCN(c3cccc(C)c3C)CC2)CC1 | . | -0.8% | -0.7 | . | 4 | .
Cn1ccc2c(N3CCCCC3)cc3c(c21)C1CCC3C1 (configuration not stated) | . | -5.1% | 57* | . | -24 | .
Cn1nc(C(=O)N2CCCC2)c2ccccc2c1=O | 17% | -1.2% | -0.4 | 13% | 2 | 0.9
CCCN(CC1CC1)C(=S)NC(=O)c1cc(Br)ccc1Cl | 2% | -2.9% | 1.4 | 1% | 3 | .
O=c1c2ccccc2nc(SCc2cccc(F)c2)n1Cc1ccco1 | -18% | -0.5% | 3.7 | -6% | 18 | 2.9
C/C(Cc1ccccc1)=N\NC(=O)CNC(=O)c1ccc(C(C)(C)C)cc1 | 9%[15.4 µM] | . | 2.6 | 11% | 24 | 2.2
CCOC(=O)C1=NN(c2cccc(Cl)c2)C2=NC(C)=C(C(=O)OC)C(c3cccs3)N12 (configuration not stated) | 10% | -2.0% | 0.0 | -11% | 3 | 4.3
CCC(=O)N=c1sc2c(OC)ccc(OC)c2n1C | -63%[inhibitor] | -4.2% | 0.5 | 5% | -4 | .
COC(=O)CC1Oc2ccc(Cl)cc2-n2cc(-c3ccc(C)cc3)nc21 (configuration not stated) | . | -12% | 1.3 | . | -17 | .

In the list so far, 7 have an NH in an aromatic ring.
SMILES | gsp agonist | ClpP mod | TRPML1 agonist | gsp antag | TRPML1 blocker | Menin MLL FP FL
CC(C)CN(C(=O)COC(=O)CSc1ccccc1)c1c(N)n(Cc2ccccc2)c(=O)[nH]c1=O | -65%[inhibitor] | 0.7% | 0.0 | 12% | 0 | .
CSc1nc(O)c(/C=C2\C=Nc3ccccc32)[nH]1 | 15% | 1.8% | -0.7 | -11% | 2 | 23
O=c1[nH]c2cc3c(cc2cc1CN(CC1CCCO1)S(=O)(=O)c1ccc(Cl)cc1)OCCO3 (configuration not stated) | 1% | ? | 0.4 | 2% | 1 | 3.7
COC(=O)[C@@]1(Cc2ccc(OC)cc2)[C@H]2c3cc(C(=O)N(C)C)[nH]c3C[C@H]2CN1C(=O)c1ccccc1 | . | 1.6% | 0.9 | -7% | 8 | 0.2&-0.2
CCOc1cc(CNc2cccc3[nH]c(C)nc23)ccc1OC | ? | . | 0.4 | 6% | 19 | 1.8
COc1ccc2[nH]c(C)c(C(=O)CN3CCN(C(=O)c4ccco4)CC3)c2c1 | 29% | 0.8% | -0.4 | 12% | 12 | -2.1
CCOC(=O)c1c(C)[nH]c(C)c1S(=O)(=O)N1CCC(C(=O)N2CCN(c3cccc(C)c3C)CC2)CC1 | . | -0.8% | -0.7 | . | 4 | .

Bioassay records (PubChem)
